# GALR2 ag: GALR2 receptor agonists, primary screen, cell-based; Galanin receptor type 2 (Homo sapiens), O43603; activation, %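 (tested at 5 µM)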; 140,000 tested, 0.48% active; GALR2-expressing cells, agonist activation read-out;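 active = above mean plus 3 SD of all compounds, about 5% in these data, not always enough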;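 note: 0% = vehicle buffer wells and 100% = reference agonist at full effect; tested in CHO reporter cells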
# Target sequence (O43603 whole entry, looked up): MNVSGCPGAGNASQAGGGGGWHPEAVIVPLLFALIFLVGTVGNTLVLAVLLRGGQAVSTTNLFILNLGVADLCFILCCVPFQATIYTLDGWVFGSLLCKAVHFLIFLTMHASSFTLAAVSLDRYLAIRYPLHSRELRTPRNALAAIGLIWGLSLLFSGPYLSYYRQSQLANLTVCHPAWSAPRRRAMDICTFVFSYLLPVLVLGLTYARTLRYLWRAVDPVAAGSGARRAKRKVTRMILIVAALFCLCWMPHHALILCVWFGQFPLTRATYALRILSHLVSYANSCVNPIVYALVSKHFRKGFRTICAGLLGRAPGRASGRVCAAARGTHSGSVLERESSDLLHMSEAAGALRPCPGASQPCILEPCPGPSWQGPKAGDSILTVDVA
# HSV augment: enhancers of HSV replication in host cells, fold increase, host cell viability; HSV replication augmentation in cells; maximum fold increase; 220,000 tested, 0.005% active;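 active = peak rise of 1.5-fold or more in the series; tested in PC3 cells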;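 note: first round at 10 µM; read as green reporter fluorescence; hits show the peak of a series up to 25 µM; 1 = signal of infected wells without compound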
# Insulin prom inh: inhibitors of insulin promoter-driven GFP, primary screen, imaging, TRM-6 cells (human fetal islet line), eGFP reporter, cell count. reporter expression induced with tamoxifen. inhibition, % at 2 µM. 130,000 tested, 0.9% active. AID 1273, 2008;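 active = inhibition above the mean plus 3 SD, with well images judged a real hit on visual review, cut at about 60% in these data, passing the limit was not always enough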
# PKD1 kinase inh: inhibitors of human PKD1 kinase, biochemical, fluorescence polarization; Serine/threonine-protein kinase D1 (Homo sapiens), Q15139; PKD1 kinase fluorescence polarization assay; inhibition, %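 (about 10 µM by stock and volumes)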; 200,000 tested, 0.056% active;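 active = inhibition of 50% or more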;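 note: controls were vehicle for no effect and a reference inhibitor for full effect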
# RGS16-Gao HTS: modulators of RGS16 binding to Galphao, primary screen, biochemical, human proteins, multiplexed bead flow cytometry; binding response (% of control), % at 10 µM; bead-based flow cytometry RGS16-Galphao binding, fluorescence; actives lie on both sides; 220,000 tested, 0.38% active; AID 1441, 2008; Regulator of G-protein signaling 16 (Homo sapiens) + Guanine nucleotide-binding protein …;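 active = below 25% or above 175%, edge rows of some plates excepted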;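 note: Galphao activated by GDP with aluminum fluoride before binding; 100% = wells without compound and 0% = beads without RGS; some results beyond the cut were filed as inactive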
# Target sequence (O15492 whole entry, looked up): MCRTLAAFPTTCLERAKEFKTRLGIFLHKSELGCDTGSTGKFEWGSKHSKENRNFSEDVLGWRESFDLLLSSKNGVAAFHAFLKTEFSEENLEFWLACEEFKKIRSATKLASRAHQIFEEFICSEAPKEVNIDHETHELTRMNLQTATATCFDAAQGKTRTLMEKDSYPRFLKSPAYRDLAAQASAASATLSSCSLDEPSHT
# Target sequence (P09471 whole entry, looked up): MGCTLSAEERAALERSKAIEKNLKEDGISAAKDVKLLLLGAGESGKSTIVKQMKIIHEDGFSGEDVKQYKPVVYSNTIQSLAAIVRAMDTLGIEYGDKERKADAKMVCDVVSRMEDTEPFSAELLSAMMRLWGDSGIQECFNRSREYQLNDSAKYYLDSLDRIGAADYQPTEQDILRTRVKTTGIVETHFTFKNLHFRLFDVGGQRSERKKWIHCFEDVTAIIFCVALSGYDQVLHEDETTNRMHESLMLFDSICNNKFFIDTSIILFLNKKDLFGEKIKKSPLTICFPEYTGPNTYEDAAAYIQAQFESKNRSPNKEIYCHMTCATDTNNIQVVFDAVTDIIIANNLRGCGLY
# Insulin prom inh cell count: second read-out of Insulin prom inh, no call of its own (marks repeat the call); normalized cell count, %; measured here: cell count, toxicity; reference of the scale not given here;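 cells exposed to compound for 48 h; stained nuclei by imaging scaled within each plate; lower means fewer cells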
# HSV augment primary fold: recorded beside HSV augment, whose call it bears; fold increase; compound at 10 µM; measured here: primary screen fold increase 10 uM; tested in PC3 cells;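 GFP signal in the first replicate; 1 = infected wells without compound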
# * marks the source's active call; other numbers are inactive results; i = inactive; x = not tested or not shown.
No. | compound | HSV augment | GALR2 ag | PKD1 kinase inh | HSV augment primary fold | Insulin prom inh | RGS16-Gao HTS | Insulin prom inh cell count
1 | Cc1cc(Br)ccc1NC(=O)CN1C(=S)NC(C)(C)CC1C (centres undefined) | i | x | 5 | 1.1 | -33 | 100 | 105
2 | CS(=O)(=O)N1CCC(C(=O)NCc2ccccc2)CC1 | i | x | 4 | 0.86 | x | 108 | x
3 | Cc1ccccc1NC(=S)NCC1CCC(CNC(=S)Nc2ccccc2C)CC1 (centres undefined) | i | x | x | 0.83 | x | 100 | x
4 | CN(C)c1ccc(NC(=O)c2cccc(N3C(=O)C4C5C=CC(C5)C4C3=O)c2)cc1 (centres undefined) | i | -3.4 | -8 | 1.1 | x | 115 | x
5 | O=C(CCS(=O)(=O)c1cccc2nsnc12)N1CCN(Cc2ccc3c(c2)OCO3)CC1 | i | -1.9 | -2 | 0.67 | 5 | 100 | 62
6 | COc1cccc(N2CCN(Cc3nc(N)nc(N4CCCc5ccccc54)n3)CC2)c1 | i | -0.9 | -3 | 0.98 | 34 | 102 | 89
7 | Cc1nc2sc3c(c2c(=O)n1/N=C/c1cccnc1)CCCC3 | i | x | 3 | 0.82 | 33 | 104 | 154
8 | CC1(C)CC(=O)C2=C(C1)OC(N)=C(C#N)C2c1ccc[nH]1 (centres undefined) | i | x | -3 | 1.3 | -21 | 99 | 102
9 | CCC(CC)C(=O)Nc1cccc(C(=O)c2ccccc2)c1 | i | -2.3 | 0 | 1 | -52 | 104 | 109
10 | O=C(CCS(=O)(=O)c1ccc(Cl)cc1)NCCN1C(=O)S/C(=C\c2ccccc2F)C1=O | i | -0.8 | -8 | 0.81 | x | 101 | x
11 | COc1ccc(N2CCN(CC(=O)NCc3ccccc3)CC2)cc1 | i | x | -4 | 0.91 | 20 | 101 | 139
12 | COc1cc2c(cc1OC)C1(Nc3c-2c(-c2ccccc2)nn3-c2ccccc2)C(=O)Nc2ccccc21 (centres undefined) | i | 1.5 | -3 | 1.1 | -22 | 101 | 95
13 | CC(C(=O)OCC(=O)Nc1ncc(Cl)cc1Cl)N1C(=O)c2ccccc2C1=O (centres undefined) | i | -2.5 | -4 | 0.98 | 31 | 87 | 98
14 | Cc1[nH]c2ccccc2c1/C=N/NC(=O)c1cccc([N+](=O)[O-])c1 | x | x | -1 | x | -46 | 108 | 68
15 | Cc1cc(C)c(S(=O)(=O)NCC(CCC(=O)O)C(F)(F)F)c(C)c1 (centres undefined) | i | x | 3 | 1 | 0 | 105 | 125
16 | C=CCOc1ccc(/C(O)=C2/C(=O)C(=O)N(CCCn3ccnc3)C2c2cccs2)cc1 (centres undefined) | i | -0.2 | -4 | 0.88 | -50 | 96 | 140
17 | CCN(CC)S(=O)(=O)c1cccc(NC(=O)/C=C/c2cccc([N+](=O)[O-])c2)c1 | i | -1.5 | -2 | 0.88 | x | 102 | x
18 | CC(C)(C)C(=O)N1N=C(c2cccc(NS(C)(=O)=O)c2)CC1c1cccs1 (centres undefined) | i | x | 1 | 0.91 | 13 | 95 | 124
19 | CCOC(=O)C1CCCN(c2nnnn2-c2ccccc2)C1 (centres undefined) | x | -1.0 | -5 | x | x | 98 | x
20 | CCn1c(SCC(=O)N/N=C/C=C/c2ccco2)nc2ccccc21 | i | -0.2 | 0 | 1.2 | x | 77 | x
21 | COc1ccc(F)c(CN2CCC(N3CCC(C(=O)N4CCOCC4)CC3)CC2)c1 | i | x | -4 | 0.99 | x | 100 | x
22 | Cc1ccc2nc(SC(C)C(=O)NCc3ccco3)[nH]c2c1 (centres undefined) | i | 0.1 | -8 | 1.1 | 30 | 101 | 65
23 | CC(=O)Nc1ccc(NS(=O)(=O)c2ccc3ccccc3c2)cc1 | i | -1.2 | 7 | 0.87 | x | 105 | x
24 | COc1ccc(NC(=O)CSc2cc(C(=O)c3nccn3C)c3ccccc3n2)cc1 | i | x | -2 | 0.91 | x | 107 | x
25 | O=c1[nH]ncn1-c1ccccc1C(F)(F)F | i | -1.1 | 1 | 0.82 | 44 | 96 | 66
26 | O=S(=O)(NCCO)c1cccc2cccnc12 | i | -1.9 | 0 | 0.78 | x | 100 | x
27 | COCc1cc(C)n(CC(=O)Nc2ccccc2C(=O)OC)c(=O)c1C#N | i | -2.6 | 11 | 0.96 | 12 | 107 | 110
28 | Cc1ccc(S(=O)(=O)N2CCC(=O)N(CCOC(=O)NCc3ccccc3)CC2)cc1 | i | -0.4 | -9 | 0.8 | -24 | 100 | 126
29 | COc1cc(-c2[nH]ncc2CN2CCN(Cc3cccs3)CC2)cc(OC)c1OC | i | x | 3 | 1.1 | x | 98 | x
30 | CCN(CCCNC(=O)COc1cc(=O)n(C)c2ccccc12)c1cccc(C)c1 | i | -0.5 | 12 | 0.8 | x | 102 | x

# New compounds follow:
No. | compound | HSV augment | GALR2 ag | PKD1 kinase inh | HSV augment primary fold | Insulin prom inh | RGS16-Gao HTS | Insulin prom inh cell count
31 | CCCN(CCC)S(=O)(=O)c1cccc(C(=O)Nc2ccc3c(c2)OCO3)c1 | x | -1.0 | 10 | x | x | 101 | x
32 | C#CCn1c(S(=O)(=O)Cc2ccccc2Cl)nc(-c2ccccc2)c1-c1ccccc1 | i | -3.5 | 7 | 1 | -3 | 100 | 120
33 | Cc1cccc(NC(=S)NCc2ccco2)n1 | i | x | -2 | 0.93 | x | 96 | x
34 | C/C(CC1CC(COCC(C)C)OC1=O)=N\NC(N)=S (centres undefined) | i | -0.7 | -3 | 1 | 21 | 109 | 122
35 | CC(C)C(NC(=O)C1CCCCC1)C(=O)Nc1ccccn1 (centres undefined) | i | -1.4 | -2 | 0.92 | x | 104 | x
36 | CCCCOC(=O)NC1CCS(=O)(=O)C1 (centres undefined) | i | -0.5 | 1 | 0.84 | 36 | 101 | 137
37 | Cc1onc(-c2ccccc2)c1C(=O)N1CCN(CCc2ccccc2)CC1 | i | -2.1 | -4 | 1.1 | -50 | 100 | 114
38 | COc1cc(/C=N/NC(=O)COc2ccccc2C)ccc1OC(=O)c1cccs1 | i | 0.3 | 1 | 0.86 | x | 79 | x
39 | Clc1cccc(/C=N/Nc2ncnc3ccccc23)c1 | i | -0.8 | -6 | 1 | x | 92 | x
40 | CN(C)c1ccnc(-n2cccc2/C=N/OCc2ccc(F)cc2Cl)c1C#N | i | -2.3 | 0 | 0.91 | -32 | 104 | 123
41 | COC(=O)c1ccc(N2CCN(S(=O)(=O)c3ccc(C)cc3)CC2)c([N+](=O)[O-])c1 | i | -3.1 | -2 | 0.97 | x | 114 | x
42 | CN1CC(=O)N(CC(=O)Nc2cccc(S(=O)(=O)N3CCOCC3)c2)C1=O | i | x | -1 | 0.96 | x | 102 | x
43 | O=C(Nc1nnc(CCN2CCOCC2)s1)c1ccccc1 | i | 0.2 | 2 | 0.88 | -9 | 103 | 104
44 | CCOC(=O)c1c(C)nc2ccccc2c1C | i | -3.0 | -5 | 0.97 | 14 | 100 | 122
45 | O=C(O)C1CCCN1S(=O)(=O)c1ccc2ccccc2c1 (centres undefined) | i | -1.8 | -4 | 0.92 | x | 98 | x
46 | CCOC(=O)c1cccc(C(=O)OCC)n1 | x | -1.9 | -3 | x | 15 | 101 | 111
47 | CCN(CC)c1ccc(CNc2ccc(Br)cn2)cc1 | i | -0.1 | -12 | 0.88 | 8 | 100 | 75
48 | CCOC(=O)c1c(O)c2cc(Cl)ccc2n(CC)c1=O | i | x | x | 1.1 | x | 97 | x
49 | CS(=O)(=O)N1CCc2cc(C(=O)N3CCCC3)ccc21 | i | x | -6 | 1 | -33 | 107 | 168
50 | O=C(Nc1ncc2c(n1)-c1ccccc1CC2)c1ccccc1 | i | -2.7 | -5 | 0.85 | -12 | 98 | 89
51 | O=C(Cc1ccccc1)NCC(=O)Nc1cccc(Br)c1 | i | x | -2 | 0.99 | -21 | 103 | 128
52 | CC(=O)Nc1ccc(Nc2c3ccccc3nc3ccccc23)cc1 | i | x | -1 | 0.6 | x | 105 | x
53 | CCN(CC)CC(=O)Nc1cccc2c1C(=O)c1ccccc1C2=O | i | x | -5 | 1 | 14 | 101 | 114
54 | COC(=O)COn1c(SC(C)C)nc2ccccc2c1=O | i | -0.6 | 2 | 0.91 | -7 | 105 | 174
55 | CCOC(=O)C(C)N1N=C(/C=C/c2ccc(C)cc2)CCC1=O (centres undefined) | i | 0.2 | 0 | 0.93 | -7 | 103 | 29
56 | CC(C)Oc1ccc(C(=O)NC2CCS(=O)(=O)C2)cc1 (centres undefined) | i | -2.3 | 1 | 0.97 | 10 | 103 | 75
57 | CSc1cc(C)nc(N(C)C(C)=O)n1 | i | -1.9 | -2 | 1 | x | 108 | x
58 | NNc1nnnc2c1sc1nc(N3CCOCC3)c3c(c12)CCCC3 | i | x | x | 0.77 | x | 94 | x
59 | O=C(NCCO)/C(=C\c1ccc([N+](=O)[O-])o1)NC(=O)c1ccccc1 | i | x | -13 | 0.9 | x | 105 | x
60 | COc1ccc(N2CCCCn3c2nc2c3c(=O)n(C)c(=O)n2C)cc1 | i | 1.8 | -4 | 0.56 | x | 102 | x

# Given with values under each structure: entries from further up.
# Results follow in this order: HSV augment, GALR2 ag, PKD1 kinase inh, HSV augment primary fold, Insulin prom inh, RGS16-Gao HTS, Insulin prom inh cell count
[31] CCCN(CCC)S(=O)(=O)c1cccc(C(=O)Nc2ccc3c(c2)OCO3)c1
→ x, -1.0, 10, x, x, 101, x
[32] C#CCn1c(S(=O)(=O)Cc2ccccc2Cl)nc(-c2ccccc2)c1-c1ccccc1
→ i, -3.5, 7, 1, -3, 100, 120
[33] Cc1cccc(NC(=S)NCc2ccco2)n1
→ i, x, -2, 0.93, x, 96, x
[34] C/C(CC1CC(COCC(C)C)OC1=O)=N\NC(N)=S (centres undefined)
→ i, -0.7, -3, 1, 21, 109, 122
[35] CC(C)C(NC(=O)C1CCCCC1)C(=O)Nc1ccccn1 (centres undefined)
→ i, -1.4, -2, 0.92, x, 104, x
[36] CCCCOC(=O)NC1CCS(=O)(=O)C1 (centres undefined)
→ i, -0.5, 1, 0.84, 36, 101, 137
[37] Cc1onc(-c2ccccc2)c1C(=O)N1CCN(CCc2ccccc2)CC1
→ i, -2.1, -4, 1.1, -50, 100, 114
[38] COc1cc(/C=N/NC(=O)COc2ccccc2C)ccc1OC(=O)c1cccs1
→ i, 0.3, 1, 0.86, x, 79, x
[39] Clc1cccc(/C=N/Nc2ncnc3ccccc23)c1
→ i, -0.8, -6, 1, x, 92, x
[40] CN(C)c1ccnc(-n2cccc2/C=N/OCc2ccc(F)cc2Cl)c1C#N
→ i, -2.3, 0, 0.91, -32, 104, 123
[41] COC(=O)c1ccc(N2CCN(S(=O)(=O)c3ccc(C)cc3)CC2)c([N+](=O)[O-])c1
→ i, -3.1, -2, 0.97, x, 114, x
[42] CN1CC(=O)N(CC(=O)Nc2cccc(S(=O)(=O)N3CCOCC3)c2)C1=O
→ i, x, -1, 0.96, x, 102, x
[43] O=C(Nc1nnc(CCN2CCOCC2)s1)c1ccccc1
→ i, 0.2, 2, 0.88, -9, 103, 104
[44] CCOC(=O)c1c(C)nc2ccccc2c1C
→ i, -3.0, -5, 0.97, 14, 100, 122
[45] O=C(O)C1CCCN1S(=O)(=O)c1ccc2ccccc2c1 (centres undefined)
→ i, -1.8, -4, 0.92, x, 98, x

# More compounds
No. | compound | HSV augment | GALR2 ag | PKD1 kinase inh | HSV augment primary fold | Insulin prom inh | RGS16-Gao HTS | Insulin prom inh cell count
61 | CCOC(=O)CSc1nc2ccc(Nc3nc(N4CCOCC4)nc(N4CCOCC4)n3)cc2s1 | i | -0.5 | -9 | 0.78 | 29 | 108 | 96
62 | CCCCC(=O)NCCNc1nc2c(c(=O)n(C)c(=O)n2C)n1Cc1ccccc1 | i | 0.1 | -9 | 1 | -14 | 103 | 96
63 | COc1cc(C(=O)Nc2nnc(C)s2)cc(OC)c1OC | i | -1.6 | -1 | 0.81 | x | 101 | x
64 | CCOC(=O)c1ccc(Nc2ccc([N+](=O)[O-])cn2)cc1 | i | -0.1 | -12 | 0.98 | x | 44 | x
65 | CC1=C(C)CC(C(=O)NCc2ccccn2)C(C(=O)O)C1 (centres undefined) | i | x | x | 1 | x | 104 | x

# Part of the list above, field by field.
(64) CCOC(=O)c1ccc(Nc2ccc([N+](=O)[O-])cn2)cc1
  HSV augment: i	GALR2 ag: -0.1	PKD1 kinase inh: -12	HSV augment primary fold: 0.98	Insulin prom inh: x	RGS16-Gao HTS: 44	Insulin prom inh cell count: x
(65) CC1=C(C)CC(C(=O)NCc2ccccn2)C(C(=O)O)C1 (centres undefined)
  HSV augment: i	GALR2 ag: x	PKD1 kinase inh: x	HSV augment primary fold: 1	Insulin prom inh: x	RGS16-Gao HTS: 104	Insulin prom inh cell count: x
